Screens (PubChem)
CtBP-E1A blk: inhibitors of CtBP/E1A interaction | activity change, % (concentration not given with the values) | 340,000 compounds, 0.49% hits | AID 651724 | AlphaScreen GST-E1A/His-CtBP binding, 1536-well; hits give low values; control for the full effect not named in the record; in the data active means activity change below about -65%; inconclusive means about -30% to -65%; inactive means above about -30%; also: % is scaled to controls: 0 for no effect and ±100 for the full control effect
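Protein mix (5X: 125 nM each GST-E1A, His-CtBP) was incubated with pinned compound 2 h at 37 deg C in dark, in 50 mM Tris pH 8.0 buffer with 300 mM NaCl. Glutathione donor and nickel acceptor beads followed; AlphaScreen signal read after 1 h.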
D2 ag: human D2 receptor agonism in beta-arrestin assay; P14416; DiscoveRx PathHunter D2 beta-arrestin, luminescence, 90 min; 100% = 57 uM dopamine signal; activation, % (no concentration beside the values); 360,000 compounds, 0.084% hits; AID 624465; in the data active = activation above about 40%; inconclusive = about 15% to 40%; inactive = below about 15%; also: compound concentration not given in the record; the text of the record calls up to 30% inactive
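Agonist mode: compounds alone added to overnight-plated D2 PathHunter cells for 90 min at 37 C, with 57 uM final dopamine (EC100) defining full response. Beta-arrestin recruitment detected by chemiluminescent reagent, read after 1 h at ambient temperature.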
D2 PAM: positive allosteric modulators of human D2 dopamine receptor; 360,000 compounds, 0.23% hits; DiscoveRx D2 beta-arrestin cells, luminescence, 90 min; 100% = 57 uM dopamine signal; potentiation, % (no concentration beside the values); AID 624464; active = potentiation of 50% or more; inconclusive = 30% to 50%; inactive = 30% or less;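 also: compound concentration not given in the record; tested on top of an EC20 dose of dopamine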
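PathHunter D2 cells, attached overnight at 37 deg C, received compound in DMSO plus dopamine at EC20 (50 nM final) for 90 min at 37 deg C. Beta-arrestin recruitment was read as luminescence after 1 h with detection reagent at ambient temperature.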
gsp antagonist: antagonists of gsp mutant (McCune-Albright syndrome); gsp-mutant cells, cAMP HTRF, 30 min; control for the full effect not named in the record; Potency, µM (doses to about 76.9 µM), inactives show at the top dose activity change, negative = inhibition, usual class: inhibitors; 340,000 compounds, 0.4% hits; AID 624288; active = falling curve of any shape with a large fitted effect; inconclusive = falling curve, mostly with a smaller effect; inactive = flat or rising curve; cell line not stated here;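 also: intracellular cAMP measured with PDE inhibitor Ro 20-1724 present during compound exposure; potency is read from the fitted curve at half-maximal effect; % is scaled to controls: 0 for no effect and ±100 for the full control effect; nearly all actives have a fitted effect of over 65% in size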
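Cells, 2000/well, grown 16–24 h in DMEM 10% FBS with 0.5 mg/ml G418, then compounds plus […] (300 uM addition stock), 30 min at 37C. cAMP read by HTRF (cAMP-d2 and anti-cAMP antibody-K in lysis buffer) after 30 min RT.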
Six1-Eya2 inh: inhibitors of human Six1/Eya2 interaction; activity change, % (no concentration beside the values); AlphaScreen GST-Six1/His-Eya2 binding, biochemical; hits give low values; control for the full effect not named in the record; 360,000 compounds, 0.56% hits; Q15475+O00167; in the data active = activity change below about -65%; inconclusive = about -30% to -65%; inactive = above about -30%; also: % is scaled to controls: 0 for no effect and ±100 for the full control effect
Target sequence (O00167 whole entry, looked up): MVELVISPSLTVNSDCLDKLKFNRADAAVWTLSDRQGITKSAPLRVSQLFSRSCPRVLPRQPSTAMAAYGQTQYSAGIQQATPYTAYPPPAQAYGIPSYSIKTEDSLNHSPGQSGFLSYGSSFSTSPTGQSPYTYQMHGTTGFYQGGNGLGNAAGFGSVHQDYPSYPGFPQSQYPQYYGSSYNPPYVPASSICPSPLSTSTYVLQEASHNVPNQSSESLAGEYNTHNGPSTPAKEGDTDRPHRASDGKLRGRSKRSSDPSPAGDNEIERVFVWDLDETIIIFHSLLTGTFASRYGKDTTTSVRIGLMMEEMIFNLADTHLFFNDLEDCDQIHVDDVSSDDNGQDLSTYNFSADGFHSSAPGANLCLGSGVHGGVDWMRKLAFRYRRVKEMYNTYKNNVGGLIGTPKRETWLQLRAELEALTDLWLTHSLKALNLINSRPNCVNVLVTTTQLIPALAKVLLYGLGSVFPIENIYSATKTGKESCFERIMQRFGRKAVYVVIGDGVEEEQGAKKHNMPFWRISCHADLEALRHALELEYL
Target sequence (Q15475 whole entry, looked up): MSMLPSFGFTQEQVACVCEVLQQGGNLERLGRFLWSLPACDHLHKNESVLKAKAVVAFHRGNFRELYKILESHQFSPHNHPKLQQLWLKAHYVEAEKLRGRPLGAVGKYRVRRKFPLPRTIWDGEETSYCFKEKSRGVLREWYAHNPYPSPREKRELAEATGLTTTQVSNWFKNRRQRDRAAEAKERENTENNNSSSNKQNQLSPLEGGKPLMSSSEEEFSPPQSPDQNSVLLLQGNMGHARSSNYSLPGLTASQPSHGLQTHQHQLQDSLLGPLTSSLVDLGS
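Compounds are tested against tagged Six1 and Eya2 proteins bridged by glutathione donor and nickel acceptor beads; after a one-hour incubation at 37 °C without light, AlphaScreen emission is recorded.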
gsp agonist: activates gsp, the McCune-Albright syndrome mutation; 340,000 compounds, 0.13% hits; Potency, µM (series often up to 76.9 µM), for the others: at the top dose activation (cAMP increase), usual class: activators; gsp mutant cells, cAMP HTRF, 30 min; control for the full effect not named in the record; AID 624287; active = well fitted activation curve with a large enough effect; inconclusive = small, poorly fitted or top-dose-only effect, or another doubt; inactive = no such curve, though single readings can be large or run the other way; cell line not stated here;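 also: phosphodiesterase inhibitor Ro 20-1724 added with compounds to block cAMP breakdown; potency is read from the fitted curve at half-maximal effect; nearly all actives have a fitted effect of over 60% in size; about a fifth of the inactives were tested at one dose only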
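Cells in DMEM/10% FBS with G418 were pretreated with compounds in DMSO plus […] (300 uM stock) for 30 min at 37C. cAMP was measured by HTRF (cAMP-d2 plus anti-cAMP antibody-K) after 30 min at room temperature.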
An asterisk follows results filed as active; ? = inconclusive; nt = no result given; [ ] = remark or other dose.

CtBP-E1A blk,D2 ag,D2 PAM,gsp antagonist,mol,Six1-Eya2 inh,gsp agonist
-20,2.0,-3,4%,Oc1[nH]c2ccc(Br)cc2c1N=Nc1ccc(F)cc1,-1,-50%[inhibitor]
-22,0.0,-5,-2%,Cc1ccc(/C=C/C(=O)Nc2ccc(N(C)C)cc2)o1,?,-46%[inhibitor]
-23,0.3,nt,nt,CCCCN1C[C@H](C)[C@@H](CC(=O)NC)C1=O,-1,5%
nt,-4.0,-8,3%,O=C(CSc1nccc(=O)[nH]1)c1cc2ccccc2o1,-1,?
-28,13,7,1%,CSc1ccc(N2CCN(CCCNC(=O)Nc3ccccc3F)CC2)cc1,-9,15%
-21,0.8,-6,2%,COc1ccc(C2C(C(C)=O)=C(O)C(=O)N2c2ccc(C)cc2)cc1 (stereo not drawn),-24,-1%
nt,-0.4,2,7%,COc1cc(OC)cc(C(=O)NC(C(=O)NNC(=O)CN(C)S(=O)(=O)c2ccc(C)cc2)C(C)C)c1 (stereo not drawn),2,20%
nt,-5.6,-4,11%,CCOC(=O)Cn1nc(C)n(-c2ccc(Br)cc2)c1=O,-6,?
-3,0.0,-3,-9%,COc1ccc(Cl)cc1S(=O)(=O)NCCCn1ccnc1,1,7%[15.4 µM]
-4,-3.9,-22,-22%,Cc1cc(Cl)ccc1NC(=O)COC(=O)c1cc([N+](=O)[O-])ccc1N1CCOCC1,-9,-61%[inhibitor]
nt,0.0,-17,3%,COc1ccc(NC(=O)C(=O)Nc2cccc3cccnc23)c(OC)c1,7,-64%[inhibitor]
-1,-1.3,1,9%,COc1ccc(NC(=O)C(CCS(C)(=O)=O)N2C(=O)c3ccccc3C2=O)cc1 (stereo not drawn),-1,-12%
-13,7.7,-3,-20%,CCOc1ccccc1NC(=O)c1cc(-c2ccccn2)nc2ccccc12,-20,17%
13,-1.2,5,-18%,Oc1cccc2ccc(/C=C/c3cccs3)nc12,4,-2%
0,-4.3,2,-17%,CCN(CC)C(=O)CSc1nc2cc3c(cc2c(=O)n1Cc1ccco1)OCO3,26,2%[15.4 µM]
10,-0.7,-4,-2%,COc1ccccc1-n1nnnc1SCC(=O)N1CCCC1=O,8,?
-2,0.3,-8,-4%,COc1ccc(NC(=O)CN2CCN(CC(=O)Nc3cc(OC)cc(OC)c3)CC2)cc1,-7,-59%[inhibitor]
2,-3.8,3,nt,Cc1cn([C@H]2C[C@H](O)[C@@H](CNS(=O)(=O)N3CCCC3)O2)c(=O)[nH]c1=O,1,-17%
-1,-6.2,6,?,CCNC(=S)N(CCc1c(C)[nH]c2ccccc12)Cc1cc(OC)c(OC)c(OC)c1,-13,-4%
-12,-4.3,-12,12%,CSCCC(NC(=O)c1ccc(Cl)cc1Cl)C(=O)N(C)Cc1nc2ccccc2c(=O)[nH]1 (stereo not drawn),-19,23%[15.4 µM]
8,-0.2,-7,18%,Cc1onc(-c2ccccc2)c1C(N)=O,6,13%
3,-2.9,-7,-1%,CC(C)(C)N(Cc1ccccc1)C(=O)CN1C(=O)c2ccccc2C1=O,6,-32%[inhibitor]
0,-1.2,-16,16%,CC(=O)/C(=N\Nc1ccc(C)cc1)N1CCOCC1,-9,-18%
0,0.7,0,-3%,CCN1C(=O)C(CC(=O)Nc2ccccc2)S/C1=N\c1ccccn1 (stereo not drawn),3,-81%[inhibitor]
0,1.2,-7,1%,CS(=O)(=O)c1ccc(Cl)c(NC(=O)CSc2nc3ccccc3c(=O)n2Cc2ccco2)c1,7,-5%[15.4 µM]
-22,-4.9,-12,-3%,Cc1cc(-c2n[nH]c(=S)n2/N=C/c2c[nH]c3ccccc23)n[nH]1,-10,21%
2,-2.1,7,20%,CNS(=O)(=O)c1cccc(C(=O)OCC(=O)Nc2ccccc2OC(F)F)c1,7,-12%
0,-1.9,-4,5%,COc1ccccc1-c1n[nH]c(=S)n1N,3,-7%[15.4 µM]
5,-1.5,-3,12%,Cn1c(=O)c(=O)n(C)c2cc(S(=O)(=O)N3CCN(c4ccc(F)cc4)CC3)ccc21,1,5%
nt,-4.0,-4,10%,CCN(CC(=O)Nc1cccc(OC)c1)C(=O)c1ccco1,0,2%

CtBP-E1A blk,D2 ag,D2 PAM,gsp antagonist,mol,Six1-Eya2 inh,gsp agonist
0,-0.2,-3,0%,C=CCSc1nnc(NC(=O)CSc2nc3ccccc3o2)s1,1,0%
-1,-3.9,4,-7%,C/C(=N\NC(=O)c1nnn(-c2nonc2N)c1-c1ccc2c(c1)OCO2)c1ccccc1,4,8%
-17,0.2,-12,0%,Cc1ccc(Nc2nc(N)nc(CN3CCN(Cc4ccc5c(c4)OCO5)CC3)n2)cc1C,-2,-3%[15.4 µM]
-24,3.5,-3,3%,CCC(CO)Oc1cc(NCc2cc(C)cc(C)c2)c2ncn(C(C)C)c2c1 (stereo not drawn),-29,?
0,-1.1,-2,6%,CCN=C(NCC)SC1CC(=O)N(c2ccccc2)C1=O (stereo not drawn),6,-23%
-22,-1.7,-9,-3%,CC(=O)Nc1ccc(OC(=O)c2cc3ccccc3oc2=O)cc1,?,9%
nt,-1.4,-3,-10%,COc1cc(NC(=O)c2cc(Cl)nnc2Cl)cc(OC)c1OC,-2,-11%
16,-1.9,-12,8%,CCN(CC)C(=O)Oc1ccc2ccccc2c1Cl,27,-8%[15.4 µM]
5,-4.6,-2,5%,CC(=O)Nc1ccc2c(c1)nc(CCN1CCN(c3ccccn3)CC1)n2C,14,-4%[15.4 µM]
?,-3.3,-4,-1%,O=c1nccc(N/N=C/c2cccc(O)c2)[nH]1,?,8%[15.4 µM]
-4,-2.1,1,4%,COCCN(C(=O)CSc1nnc(C)n1-c1ccc(C)cc1)c1c(N)n(Cc2ccccc2)c(=O)[nH]c1=O,0,-2%
7,-0.5,-1,-4%,O=C(CN1CCN(CC(=O)Nc2ccc(F)cc2)CC1)NCC1(N2CCOCC2)CCCCC1,4,-17%
-26,12,18,3%,CC1C(=O)N2CCCc3cc(NS(=O)(=O)c4ccc([N+](=O)[O-])cc4)cc1c32 (stereo not drawn),3,7%
7,0.9,-2,?,COc1ccccc1N1CCN(C(=O)COc2cc(C)cc(C)c2)CC1,-5,8%[15.4 µM]
14,2.7,-2,-3%,O=C(CSc1nnc(-c2ccco2)n1-c1ccccc1)N1CCOCC1,3,-2%
0,3.7,12,-34%,CCN(CC)C(=O)CSc1nc2cc3c(cc2c(=O)n1CCCCCC(=O)NCc1ccc(OC)cc1)OCO3,-5,0%[15.4 µM]
1,-2.5,2,-26%,COc1cc(OC)cc(-c2cc(N)n(S(=O)(=O)Cc3ccccc3)n2)c1,-17,?
5,2.7,1,-8%,Nc1nnc(SCC(=O)Nc2cccc(Cl)c2)s1,4,6%[15.4 µM]
-1,-1.8,-4,4%,COCc1cc(C)nc(SCc2nc3ccccc3c(=O)[nH]2)c1C#N,-8,47%
-4,-1.2,-68,8%,CC1(C(=O)OCC(=O)NC(=O)c2ccccc2)CC1(Cl)Cl (stereo not drawn),1,21%[15.4 µM]
1,5.8,23,11%,COc1cccc(CN2CC(C(=O)N3CCCCCC3)CCC2=O)c1 (stereo not drawn),5,-5%[15.4 µM]
-5,-3.0,-12,-2%,O=C(O)CC[C@@H](C(=O)O)N1C(=O)c2ccccc2C1=O,10,nt
nt,7.6,-4,7%,C=CCSc1nc(=O)n2ccccc2n1,12,-2%[15.4 µM]
3,2.6,5,3%,COC(=O)c1ccc(NC(=O)CSc2nnc(CNc3ccc(OC)cc3)n2C)cc1,2,26%
7,4.6,-28,nt,CC1(C)CC2CC(C)(CN2CC(O)COc2ccccc2)C1 (stereo not drawn),5,0%[15.4 µM]
3,-0.5,-3,-1%,CCOC(=O)C1=C(C)NC(=S)N(C(C)=O)C1c1ccccc1 (stereo not drawn),-2,?
-1,-8.1,-14,7%,CCOc1ccc(C(=O)N(C)C2CCS(=O)(=O)C2)cc1 (stereo not drawn),-7,11%
-8,-0.6,-5,-3%,CCN(CC)c1nc(N2CCOCC2)c(C#N)c2c1CN(C)CC2,6,21%
-18,0.8,9,nt,CC(Sc1ccc2c(c1)OCCO2)C(=O)Nc1ccc(N2CCOCC2)cc1 (stereo not drawn),0,-11%[15.4 µM]
-7,?,0,-3%,COc1ccc(CN2CCN(C(=O)c3ccco3)CC2)cc1OCc1ccccc1,3,15%

Some of these compounds in order of molar mass, low to high.
CtBP-E1A blk,D2 ag,D2 PAM,gsp antagonist,mol,Six1-Eya2 inh,gsp agonist
-5,-3.0,-12,-2%,O=C(O)CC[C@@H](C(=O)O)N1C(=O)c2ccccc2C1=O,10,nt
3,-0.5,-3,-1%,CCOC(=O)C1=C(C)NC(=S)N(C(C)=O)C1c1ccccc1 (stereo not drawn),-2,?
7,0.9,-2,?,COc1ccccc1N1CCN(C(=O)COc2cc(C)cc(C)c2)CC1,-5,8%[15.4 µM]
0,-0.2,-3,0%,C=CCSc1nnc(NC(=O)CSc2nc3ccccc3o2)s1,1,0%
14,2.7,-2,-3%,O=C(CSc1nnc(-c2ccco2)n1-c1ccccc1)N1CCOCC1,3,-2%
5,-4.6,-2,5%,CC(=O)Nc1ccc2c(c1)nc(CCN1CCN(c3ccccn3)CC1)n2C,14,-4%[15.4 µM]
-1,-3.9,4,-7%,C/C(=N\NC(=O)c1nnn(-c2nonc2N)c1-c1ccc2c(c1)OCO2)c1ccccc1,4,8%
-17,0.2,-12,0%,Cc1ccc(Nc2nc(N)nc(CN3CCN(Cc4ccc5c(c4)OCO5)CC3)n2)cc1C,-2,-3%[15.4 µM]
0,3.7,12,-34%,CCN(CC)C(=O)CSc1nc2cc3c(cc2c(=O)n1CCCCCC(=O)NCc1ccc(OC)cc1)OCO3,-5,0%[15.4 µM]
